Screening results from PubChem.
2A firefly – Primary qHTS Assay for Foot and Mouth Disease Virus Antivirals against NCGC Sytravon and CBC Compound Libraries: Firefly Luciferase Signal; AID 1745856, 2022; HEK cells with a luciferase reporter of 2A StopGo recoding; Potency, µM (top dose mostly 57.5 µM), inactives show at the top dose signal change, negative = less light; 0.23% of 120,000 active; active = well fitted falling curve with a large enough effect; inconclusive = small, poorly fitted or top-dose-only effect; inactive = no such curve, though single readings can be large or run the other way; further: nearly all actives have a fitted effect of over 60% in size; overnight with compound
2A Renilla – Primary qHTS Assay for Foot and Mouth Disease Virus Antivirals against NCGC Sytravon and CBC Compound Libraries: Renilla Luciferase Signal | Potency, µM (highest dose often 57.5 µM), for the others: at the top dose signal change, negative = less light | 0.32% of 120,000 active | AID 1745857, 2022 | HEK cells with a luciferase reporter of 2A StopGo recoding; active means well fitted falling curve with a large enough effect; inconclusive means small, poorly fitted or top-dose-only effect; inactive means no such curve, though single readings can be large or run the other way; further: nearly all actives have a fitted effect of over 55% in size; overnight with compound
Starred values were filed as active, the others as inactive; ? = inconclusive; [ ] = dose if it differs, or a comment. On the % scale 0 is the no-effect control and ±100 the full control effect; potency means the concentration at half of the fitted maximal effect.

Fields: 2A firefly, 2A Renilla
- CCOC(=O)c1cccc(NC(=O)NCc2ccc3c(c2)CCN3C(=O)c2ccccc2)c1
  0%, ?
- Cc1cccc(NC(=O)CC2CC3CCC2C3)c1 (centres undefined)
  19%, 0%
- COc1ccc(N2CCN(C(=O)CSCc3nc(-c4ccccc4Cl)oc3C)CC2)cc1
  ?, ?
- Cc1cccc(Oc2ccc(NC(=O)c3ccc4c(c3)NC(=O)CS4)cc2)c1
  ?, 22µM*
- Cc1ccc2c(c1)N(CC(=O)NCCCN1CCCCC1)C(=O)c1cccnc1O2
  -9%, -10%
- CC(C)CCn1c(=O)c2sccc2n2c(CCCC(=O)NC(C)c3ccccc3)nnc12 (centres undefined)
  -17%, -15%
- O=C(C1CCCN(Cc2cccc3ccccc23)C1)N1CCCCC1 (centres undefined)
  6%, 7%
- CC(C)N(C(=O)Cn1c(CN2CCCCC2)nc2ccccc21)c1ccccc1
  -6%, -8%
- CC1CCCCN1CCCNC(=O)CN1C(=O)c2cccnc2Oc2ccc(Cl)cc21 (centres undefined)
  -11%, -15%
- CC(C)(C(=O)NCC(c1ccccc1)N1CCCC1)c1ccccc1 (centres undefined)
  38%[activator], 11%
- CCNc1nnc(SCc2nc(-c3ccccc3)no2)s1
  104%[activator], 6%
- CC(C)(C)c1cc(SCCC#N)cc(C(C)(C)C)c1O
  14%, 22%
- COc1ccc(Nc2c(-c3ccc(Cl)cc3)nc3cnccn23)cc1OC
  -8%, -1%
- CCOc1ccc(-c2nnc(SCC(=O)NCc3ccccc3)o2)cc1
  -17%, -3%
- O=C(Cc1cccs1)N/N=C/c1c2ccccc2cc2ccccc12
  65%[activator], 40%[activator]
- Fc1ccc(C2C=C(c3ccccc3)NC(=S)N2)cc1 (centres undefined)
  27%, 31%
- Cc1ccccc1NC(=O)c1c(C)oc2ccc(O)c(CN3CCOCC3)c12
  -17%, -15%
- Cn1c(Nc2ccc(Cl)cc2)cc(=O)n(C)c1=O
  15%, -15%
- CCOc1ccc(C(C)NC(=O)c2cc(C)ccc2C)cc1OCC (centres undefined)
  66%[activator], 28%
- Cc1nc(C)c(C(=O)OC(C)C(=O)C23CC4CC(CC(C4)C2)C3)s1 (centres undefined)
  39%[activator], -1%
- COc1cc2c(cc1OC)C(c1ccccc1OC(C)C)CC(=O)N2 (centres undefined)
  12%, 8%
- CCOC(=O)c1sc(NC(=O)c2cc3nc(-c4ccc(Br)cc4)cc(C(F)(F)F)n3n2)c(C(=O)OCC)c1C
  -7%, -6%
- Cc1cccc(CSc2nc3c(c(=O)[nH]2)CCC3)c1
  54%[activator], 30%
- O=S1(=O)C[C@H](N2CCN(Cc3ccc4c(c3)OCO4)CC2)[C@@H](S(=O)(=O)c2cccs2)C1
  -3%, 51%[activator]
- COc1cc(NC(=O)c2c(-c3ccc(C)cc3)nnc3ccccc23)cc(OC)c1OC
  187%[activator], 14%
- CCc1ccc(NC(=O)C2CCCN2S(=O)(=O)c2ccc3nc(-c4ccccc4)[nH]c3c2)cc1 (centres undefined)
  -14%, ?
- O=C(CSc1nc(-c2ccccc2)no1)N1CCN(c2ccc(F)cc2)CC1
  -14%, -18%
- Cc1nnc(C(C)N2CCN(C(=O)Cc3ccccc3C)CC2)o1 (centres undefined)
  2%, -3%
- Cc1cc(C(=O)NCc2cccnc2N(C)C)no1
  40%[activator], 10%
- CC(=O)c1ccc(NC(=O)c2cc3sccc3n2Cc2ccc(F)cc2)cc1
  -8%, -4%
- O=C(Cn1nc(N2CCN(c3ccccc3)CC2)ccc1=O)Nc1ccc(F)cc1F
  -1%, -7%
- O=C(CN1C(=O)CCSc2ccc(S(=O)(=O)N3CCCC3)cc21)Nc1ccccc1
  -24%, -7%
- COc1cc(C(=O)N2CCc3c([nH]c4ccccc34)C2c2ccccc2)cc(OC)c1OC (centres undefined)
  ?, -20%
- CCCc1cc(=O)oc2cc(OCC(=O)NCc3cccnc3)ccc12
  13%, 7%
- O=C(NCc1cccc(F)c1)c1ccc2nc(N3CCCCC3)sc2c1
  7%, 98%[activator]
- O=C(CCc1ncc(-c2ccccc2)o1)Nc1ccn[nH]1
  20%, -9%
- CC(=O)c1cc(-c2ccccc2)n(CCC(=O)Nc2ccc(C(C)C)cc2)c1C
  ?, ?
- Cc1ccccc1-c1noc(CN2CCC(c3ccn[nH]3)CC2)n1
  0%, 1%
- Cc1ccccc1NC(=O)CSc1nc2ccccc2nc1C
  ?, ?
- COc1ccc(NC(=O)c2ccc(CN3CCCC3=O)cc2)cc1S(=O)(=O)N1CCOCC1
  -2%, 9%
- COc1ccc(CNC(=O)N2CCN(S(=O)(=O)c3ccc(Cl)c(Cl)c3)CC2)cn1
  -22%, -18%
- C=CCN(Cc1ccc(OC)cc1)C(=O)Cc1nn(C)c(=O)c2ccccc12
  ?, ?
- O=C(CSc1nccn1Cc1ccccc1)Nc1nc2ccccc2s1
  181%[activator], -1%
- Cc1c(O)ccc2c(CN3CCN(CCc4ccccn4)CC3)cc(=O)oc12
  -8%, -6%
- CC(C)Cn1cc(NC(=O)NCc2ccccc2)c2ccccc2c1=O
  5%, -15%
- COc1ccc2c(c1)CCCN2C(=O)c1cc2cc(C)ccc2nc1C
  -2%, 4%
- NC(=O)NC(=O)C(Cl)c1ccccc1 (centres undefined)
  0%, -5%[1.06 µM]
- CN(C)C(=O)C1CN(C(=O)c2nn(Cc3ccccc3)c(=O)c3ccccc23)c2ccccc2O1 (centres undefined)
  7%, 64%[activator]
- CCOC(=O)C1=C(CNCc2ccc(Cl)cc2)NC(=O)NC1c1ccccc1 (centres undefined)
  -8%, -14%
- CCN1CCN(c2nc3c(c(=O)[nH]2)CCCC3)CC1
  -7%, -16%
- Cc1ccc2c(c1)c(=O)c(C(=O)c1ccncc1)cn2CC(=O)Nc1ccc(C(C)C)cc1
  ?, -5%
- Cc1ccsc1C(=O)Nc1ccccc1Cc1ccccc1
  0%, -2%[1.06 µM]
- CCS(=O)(=O)N(C)CCCNC(=O)c1cn(C)c2ccccc12
  0%, -7%
- COC(=O)C(C)N1C(=O)S/C(=C/c2cccn2C)C1=O (centres undefined)
  -53%, ?
- O=C1CCCCC1Sc1nc2cc(Cl)ccc2s1 (centres undefined)
  220%[activator], 18%
- COc1ccccc1NC(=O)N1CC=C(c2c[nH]c3ccccc23)CC1
  29%, -3%
- COc1ccccc1C(=O)NC1CCC(C)CC1 (centres undefined)
  45%[activator], 0%
- Cn1c([N+](=O)[O-])cnc1COC(N)=O
  17%[11.5 µM], 45%[activator]
- OCc1cc(C(O)CNCCCCCCOCCCCc2ccccc2)ccc1O (centres undefined)
  7%, -6%
- Cc1nc2c(-c3ccc(F)cc3)c(C)nn2c(C)c1CCC(=O)N1CCN(c2ccc(F)cc2)CC1
  3%, -5%

Fetched by structure from above (two):
Fields: 2A firefly, 2A Renilla
- COc1ccc2c(c1)CCCN2C(=O)c1cc2cc(C)ccc2nc1C
  -2%, 4%
- CCN1CCN(c2nc3c(c(=O)[nH]2)CCCC3)CC1
  -7%, -16%

Next structures follow:
Fields: 2A firefly, 2A Renilla
- CCc1ccccc1NC(=O)Nc1nnc(N(C)Cc2ccccc2)s1
  2%, -8%
- Cc1ccc(Cl)cc1N1CCN(CCCNC(=O)Cn2ncc3c([nH]c4ccccc43)c2=O)CC1
  -3%, -21%
- COc1ccccc1NC(=O)c1cc(=O)c2ccc(C)c(C)c2o1
  -8%, -5%
- Cc1ccccc1C(=O)NC1(C(F)(F)F)C(=O)Nc2c1c(=O)[nH]c(=O)n2-c1ccc(F)cc1 (centres undefined)
  -7%, 2%
- COc1ccc(-c2cc(C(C)=O)c(C)n2CCC(=O)NCc2ccc(C)cc2)cc1
  -20%, 11%
- CCOc1ccccc1C(=O)NC1(C(F)(F)F)NC(=O)N(CCc2ccc(OC)c(OC)c2)C1=O (centres undefined)
  5%, 6%
- Cc1cc(Cl)ccc1Nc1ncnc2onc(C)c12
  7%, -8%
- COc1ccc(NC(=O)C(C)Nc2ccc3oc(C)nc3c2)cc1OC (centres undefined)
  9%, 5%
- Cc1ccc(Cn2nnc3c(=O)n(CC(=O)N4CCCCCC4)cnc32)cc1
  9%, 9%
- Cn1c(=O)c2c(ncn2CCC(=O)Nc2ccc(F)cc2)n(C)c1=O
  -6%, -11%
- Cc1ccc(C(=O)CSc2nc3ccccc3c(=O)[nH]2)c(C)c1
  152%[activator], 22%
- CCOC(=O)c1[nH]c2ccccc2c1NC(=O)c1ccccc1F
  8%, 28%
- CCNC(=S)NCCc1ccc(Cl)cc1
  0%, 15%
- CCOC(=O)c1c(NC(=O)c2cc(-c3cccc(Cl)c3)on2)sc(C)c1C
  -13%, -3%
- Cc1ccc(-c2cnc(CCC(=O)NC(C)c3ccco3)o2)cc1 (centres undefined)
  44%[activator], 33%[activator]
- CCCC1=Nc2cc(C(=O)NCCCN(CC)CC)ccc2Sc2ccccc21
  0%, -11%
- CCc1c(C)nc(SCc2nc(-c3ccc(OC)cc3OC)oc2C)[nH]c1=O
  0%, -10%
- CCOC(=O)c1c(C)c(-c2ccccc2)n(CC(=O)NCCc2ccc(C)cc2)c1C
  -24%, -7%
- CCCN(CCC)CCCNC(=O)Cn1cnc2sc(C)c(S(=O)(=O)N3CCCCC3)c2c1=O
  -2%, -10%
- CCc1ccc(-c2nn(CC(=O)Nc3ccccc3C)c3c2cnc2ccc(C)cc23)cc1
  -13%, -18%
- Cc1n[nH]c(C)c1S(=O)(=O)Nc1ncn(Cc2ccc(Cl)c(Cl)c2)n1
  -4%, -11%
- O=C(CN1C(=O)C2(SCC(=O)N2c2ccccc2)c2ccccc21)NCc1ccccc1Cl (centres undefined)
  -22%, -7%
- CCc1ccc(-n2nc(CO)c(C(=O)NC)n2)cc1
  80%[activator], 2%
- CCOC(=O)c1ccc(Nc2nc3ccccc3nc2NS(=O)(=O)c2cc(C)ccc2C)cc1
  -12%, -22%
- COc1ccccc1NC(=O)C1CCC(CNS(=O)(=O)c2ccc3c(c2)CC(C)N3C(C)=O)CC1 (centres undefined)
  ?, ?
- Cc1ccc(C(=O)/C=C/c2ccc(C#N)cc2)o1
  26%, 21%
- O=C(O)/C=C/c1ccc(-c2ccccc2F)o1
  0%, -6%
- CC(=O)N(c1nc(COc2ccccc2C(N)=O)cs1)c1cccc(C)c1C
  ?, -24%
- O=C(O)c1ccc(COc2cccc(Cl)c2Cl)o1
  11%, 14%
- CCn1c(C(=O)NCc2ccc(OC)cc2)cc2sc(Cl)cc21
  13%, 31%[activator]

Another view of some results above:
structure: CCOC(=O)c1[nH]c2ccccc2c1NC(=O)c1ccccc1F
- 2A firefly = 8%
- 2A Renilla = 28%

structure: CCOc1ccccc1C(=O)NC1(C(F)(F)F)NC(=O)N(CCc2ccc(OC)c(OC)c2)C1=O (centres undefined)
- 2A firefly = 5%
- 2A Renilla = 6%

structure: COc1ccc(NC(=O)C(C)Nc2ccc3oc(C)nc3c2)cc1OC (centres undefined)
- 2A firefly = 9%
- 2A Renilla = 5%

structure: Cc1ccc(C(=O)CSc2nc3ccccc3c(=O)[nH]2)c(C)c1
- 2A firefly = 152%[activator]
- 2A Renilla = 22%

Next part:
Fields: 2A firefly, 2A Renilla
- O=C(Nc1nc(-c2ccccc2)cs1)c1ccc(Cl)c(N2CCCC2=O)c1
  -38%, ?
- COc1ccc(Cl)cc1NS(=O)(=O)c1cc(-c2cc(C(F)(F)F)on2)ccc1OC
  2%, 187%[activator]
- COc1ccc(N(CC(F)(F)F)C(=O)Cn2cnc3c2c(=O)n(C)c(=O)n3C)cc1
  -6%, -7%
- Cc1ccc(S(=O)(=O)CC(=O)Nc2sc3c(c2C#N)CCCCC3)cc1
  3%, -12%
- Cc1ccc(-n2c(=O)c3c(c4cc(C)ccc4n3C)n(CC(=O)N3CCCC3)c2=O)cc1
  13%, 3%
- Cc1ccc(C(=O)NC2=C(C#N)CCC2)cc1
  111%[activator], 5%
- Cc1cc(=O)n(C(C)C(=O)NCc2ccccc2Cl)c2c1c(C)nn2-c1ccccc1 (centres undefined)
  -5%, -12%
- Cc1ccccc1CNC(=O)C1CCCCN1S(=O)(=O)c1ccc(F)cc1 (centres undefined)
  -12%, 4%
- CC(C)(C)c1ccc(-c2nnc3sc(COc4ccccc4)nn23)cc1
  1%, -20%
- CCOc1ccc(NC(=O)Cn2nc(C(=O)O)c3ccccc3c2=O)cc1
  27%, 2%
- C=CCc1ccccc1OCc1nc2ccccc2n1CC
  -5%, -4%
- CCNC(=O)NC(=O)C(C)N(C)Cc1cccs1 (centres undefined)
  14%, 5%
- CCOc1ccc2nc(NC(=O)c3cccn(Cc4ccccc4C)c3=O)sc2c1
  ?, -10%
- CCNC(=O)CC1C(=O)N(c2ccc(C)cc2)C(=O)N1Cc1ccc(C)cc1 (centres undefined)
  9%, 7%
- Cc1cccc(C(=O)NC(c2ccc3c(c2)OCCCO3)C(C)C)n1 (centres undefined)
  9%, 34%[activator]
- CCOC(=O)c1c(NC(C)=O)c2c3c(sc2n1Cc1nc(-c2ccccc2C)oc1C)CCCC3
  3%, 11%
- COC(=O)C1(NC(=O)CCNC(=O)C2CCCC2)CCC(C)CC1 (centres undefined)
  0%, 3%
- CCOc1ccc2c(=O)c(-c3ccc(OC)c(OC)c3)coc2c1
  108%[activator], 2%
- N=C(N)c1ccc(OCc2cccnc2)cc1
  29%, 7%
- COc1ccc(N2CC(NC(=O)C3CCCCC3)CC2=O)cc1 (centres undefined)
  -15%, -10%

These rows are one share of the data. The share of hits here may be higher or lower than overall.
